# MITF inh: inhibitors of MITF; inhibition, % (concentration not given with the values); TRPM1 promoter luciferase, luminescence, 24 h; AID 2240; 37,000 compounds, 0.28% hits;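 active = most replicates at 85% or more, or half of them and the mean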;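 note: human melanocyte line stably carrying TRPM1 promoter luciferase reporter; 0% = vehicle wells and 100% = a positive control; the first replicate is given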
# Numbers without * were called inactive. A portion of the library, so the mix of outcomes need not match the whole.
Structure	MITF inh
CC1CCc2c(sc3ncnc(NCCc4nc5ccccc5[nH]4)c23)C1 (stereo not drawn)	-10
Cc1cc(C)c(NC(=O)CSc2nnc(-c3ccc(F)cc3)n2C)c(C)c1	13
CCOC(=O)CSc1nc2ccc(Br)cc2c(=O)n1-c1ccccc1OC	11
CS(=O)(=O)N(CC(=O)Nc1ccccc1-c1ccccc1)c1cccc(F)c1	-3
OC(COc1ccc2cc(Br)ccc2c1)Cn1cnc2ccccc21 (stereo not drawn)	-2
O=C(Nc1cccc(Br)c1)C1CN(S(=O)(=O)c2ccccc2)CCN1S(=O)(=O)c1ccccc1 (stereo not drawn)	13
Cc1cc(C)c(NC(=O)CSc2nc(-c3ccc(F)cc3)cs2)c(C)c1	0
CCn1ccc(CNC(=O)Nc2ccc(Cl)cc2Cl)n1	-16
Cc1cc(C)nc(NS(=O)(=O)c2ccc(NC(=O)c3ccc(-c4ccccc4)cc3)cc2)n1	44
O=C(Nc1ccccc1)c1ccc(NCc2cccnc2)c([N+](=O)[O-])c1	-35
CCOC(=O)CSc1nc(-c2ccccc2)c2cc(Cl)ccc2n1	-5
COC(=O)c1cc(-c2ccccc2)sc1NC(=S)Nc1cccc(NC(C)=O)c1	13
Cc1[nH]c2ccccc2c1C(=O)CSc1nncn1C	-8
COc1ccccc1NC(=O)CNC(=O)c1ccccc1Cl	-15
O=C(CNS(=O)(=O)c1cc(Cl)ccc1Cl)Nc1ccc2c(c1)OCCO2	-28
Cc1nc(-c2ccccc2)sc1C(=O)C1C(=O)C(=O)N(CCN(C)C)C1c1ccccc1 (stereo not drawn)	-3
O=C(CSc1nc(-c2ccc(Cl)cc2)cc(C(F)(F)F)n1)c1cccc([N+](=O)[O-])c1	8
Cc1nnc(SCC(=O)Nc2cccc(F)c2)s1	-15
Cc1cccc(NC(=O)CN(c2ccc(Br)c(C)c2)S(C)(=O)=O)c1	2
O=C(CSc1nnc2n(-c3ccccc3)c3ccccc3n12)Nc1ccc(Cl)cc1	7
O=C(Nc1ccc(Cl)cc1C(=O)NCCO)c1ccc(Cl)cc1Cl	20
O=C(O)c1ccc(NS(=O)(=O)c2cccc(C(=O)Nc3ccccc3)c2)cc1	-10
CCCSc1nc(NCCO)c2c3c(sc2n1)COC(C)(CC)C3 (stereo not drawn)	4
COc1ccc(Cl)cc1NC(=O)C(C)NS(=O)(=O)c1ccc(C)cc1 (stereo not drawn)	10
Cc1cccc(NCC(O)Cn2cnc3c2c(=O)n(C)c(=O)n3C)c1 (stereo not drawn)	-1
Cc1cc2nsnc2c(S(=O)(=O)NCC(=O)O)c1C	-4
COc1ccccc1OCC(=O)Nc1cc(-c2nc3ccccc3[nH]2)ccc1C	-32
O=C(CSc1nnc(-c2ccco2)o1)Nc1cccc2ccccc12	-19
CCOc1ccc(NC(=O)C2CC=CCC2C(=O)O)cc1 (stereo not drawn)	-7
Cc1cc(C(F)(F)F)nc(SCc2cccc(C(=O)O)c2)n1	-27
CC(NC(=O)c1ccccc1NC(=O)c1ccccc1)C(=O)N1CCOCC1 (stereo not drawn)	-16
O=C(COc1cccc(NC(=O)c2ccc([N+](=O)[O-])cc2)c1)c1ccc(F)cc1	33
CSc1ncc(Cl)c(C(=O)Nc2nnc(SCc3ccccc3)s2)n1	1
CCN1CCOC(CC(=O)Nc2cc(C(=O)OC)cc(C(=O)OC)c2)C1=O (stereo not drawn)	-13
Cc1noc(NS(=O)(=O)c2ccc(NC(=O)C3COc4ccccc4O3)cc2)c1C (stereo not drawn)	-17
CC(=O)Nc1cccc(NC(=O)c2cc(-c3ccc(C)o3)nc3ccccc23)c1	-47
Cc1nnc2sc(-c3ccccc3NC(=S)NC(=O)CC34CC5CC(CC(C5)C3)C4)nn12	-10
COc1ccc(OC)c(NC(=O)CSc2nnc(-c3ccc(Cl)cc3Cl)n2C)c1	29
COc1ccc(C(=O)CSc2nnc(-c3ccc(OC)c(OC)c3)n2-c2ccc(C)cc2)cc1	-10
Cc1sc(NC(=O)COc2ccc(Cl)cc2Cl)c(C(N)=O)c1C	-13
O=C(COc1ccc([N+](=O)[O-])cc1)Nc1ccc2oc(-c3cccc(Br)c3)nc2c1	-14
COc1cc(Br)c(CCNC(=O)c2ccco2)cc1OC	1
COc1ccc(N2C(=O)CC(SCC(=O)Nc3ccc(F)cc3)C2=O)cc1 (stereo not drawn)	-3
COCCNC(=O)c1cc(-c2cccnc2)nc2ccc(Br)cc12	-30
O=C(CSc1ncn[nH]1)Nc1ccc(-c2nc3ccccc3s2)cc1	64
COc1ccc(CN2C(=O)C(O)(CC(=O)c3ccc(C)s3)c3ccccc32)cc1OC (stereo not drawn)	17
COc1ccc(Cl)cc1N=C1NC(=O)CC(C(=O)Nc2ccccc2)S1 (stereo not drawn)	-12
Cc1ccc2nc(-c3ccncc3)cc(C(=O)NCc3ccccn3)c2c1	24
c1coc(CNc2ncnc3c2sc2nc(N4CCOCC4)c4c(c23)CCC4)c1	-8
COC(=O)c1ccc(NC(=O)C2CCCCC2C(=O)O)cc1 (stereo not drawn)	-23

# The list goes on:
canonical_smiles | MITF inh
CCc1c(O)nc(SC(C)C(=O)Nc2ccc(Cl)cc2)[nH]c1=O (stereo not drawn) | -7
CC(=O)Nc1cccc(NC(=O)c2cc(-c3ccccn3)nc3ccc(Br)cc23)c1 | 19
O=C(CSc1nc2ccccc2[nH]1)Nc1ccc(Br)cc1Cl | -7
O=C(CC(C(=O)O)N1CCCCC1)Nc1cccc([N+](=O)[O-])c1 (stereo not drawn) | 2
COC(=O)c1c(-c2cccc(C)c2)csc1NC(=O)c1ccccc1[N+](=O)[O-] | -38
O=C(NCCCn1ccnc1)c1nn2c(C(F)(F)F)cc(-c3ccccc3)nc2c1Cl | 11
Cc1nc2ccccc2nc1OCc1cccc([N+](=O)[O-])c1 | -16
COc1ccc(-c2nc3ccccc3s2)cc1NC(=S)NC(=O)COc1ccc(C)cc1 | -8
O=C(CSc1nnc(-c2cccc(F)c2)n1-c1ccccc1)NC1CCCC1 | -5
COC(=O)C(C(C)c1c[nH]c2ccccc12)[N+](=O)[O-] (stereo not drawn) | 5
O=C(CCSc1nc2ccccc2o1)Nc1ccc(F)cc1 | 10
Cc1nn(Cc2cccc(C(=O)NCc3ccccn3)c2)c(C)c1Cl | 19
O=C(CSc1nnc(-c2ccccc2)o1)Nc1cccc(F)c1 | -45
CSc1nc(N)nc(SCC(=O)c2ccc(Cl)s2)c1C#N | -16
COc1cc(NC(=O)CSc2nc(C)cc(=O)[nH]2)c(OC)cc1Cl | -13
O=C(Cc1ccccc1[N+](=O)[O-])Nc1ccccc1C(=O)NC1CCCCC1 | -10
Cc1c(Cl)cccc1NC(=O)CSc1nc(-c2ccccc2)cs1 | -6
Cc1cc(=O)[nH]c(SCCOc2cccc(Oc3ccccc3)c2)n1 | 4
CNC(=O)COc1ccc(Nc2nnc(-c3ccc(OC)cc3)c3ccccc23)cc1 | -12
Cc1ccc2c(C)c(C(=O)Nc3sc4c(c3C(=O)NCC3CCCO3)CCCC4)oc2c1 (stereo not drawn) | -5
Cc1cccc(NC(=O)CSc2nnc(-c3ccncc3)n2-c2ccc(C)c(C)c2)c1 | 16
COc1ccccc1CC(=O)Nc1ccc(-c2noc(-c3cc(OC)c(OC)c(OC)c3)n2)cc1 | -14
O=C(COc1ccc(I)cc1)Nc1ccc(O)cc1C(=O)O | -22
Cc1ccc(C(=O)Nc2ccccc2C(=O)NCc2ccco2)cc1[N+](=O)[O-] | -25
Cc1ccc(-c2noc(CN(C(=O)c3ccccc3-c3ccccc3)C(C)C)n2)cc1 | 37
CC(=O)c1cccc(NC(=O)CS(=O)(=O)c2ccccc2)c1 | -13
Cc1cccc(-c2nnc(SCC(=O)Nc3cccc(Br)c3)n2C)c1 | -11
Cc1nc2ccccc2n1CC(=O)NCCN1CCCC1 | 8
Cc1sc(NC(=O)c2cc(-c3ccccn3)nc3ccccc23)c(C(=O)NC2CCCCC2)c1C | -3
COc1ccc(NC(=O)c2ccco2)cc1NC(=O)c1cccnc1 | -7
COc1ccc(Cl)cc1NC(=O)CN(c1ccc(Cl)c(C(F)(F)F)c1)S(C)(=O)=O | 12
Cn1c(SCC(=O)c2ccc(Cl)cc2Cl)nnc1-c1cccnc1 | 3
COc1ccc(NC(=O)CN2CCC(C(N)=O)(N3CCCCC3)CC2)cc1 | -11
O=C(O)C1(NS(=O)(=O)c2ccc(F)c(Cl)c2)CCCCC1 | -4
COc1ccc(-c2nc3ccccc3s2)cc1NC(=O)COc1ccc(Cl)cc1Cl | -26
CCc1ccccc1NC(=O)CCCN1C(=O)c2ccccc2C1=O | -13
Cc1cc(=O)[nH]c(SCC(=O)Nc2ccc(I)cc2)n1 | -2
O=C(Nc1ccccc1[N+](=O)[O-])c1cccc(S(=O)(=O)Nc2ccc(Br)cc2)c1 | 22
O=C(Nc1sccc1C(=O)NCc1ccco1)c1cccnc1 | -14
COC(=O)c1ccc(NC(=O)CSc2nc(-c3ccccc3)cc(=O)[nH]2)cc1 | 6
CCOC(=O)c1c(NC(=S)Nc2cnccn2)sc2c1CCCCCC2 | 14
O=C(CSC1CC(=O)N(c2ccccc2)C1=O)Nc1ccccc1F (stereo not drawn) | -12
COc1cc([N+](=O)[O-])ccc1NC(=O)CN(C)S(=O)(=O)c1ccccc1 | -3
COC(=O)COc1cccc(NC(=O)c2ccc(C)cc2)c1 | 7
CN(C)C(=O)CSc1nnc(-c2cccnc2)n1-c1ccccc1 | -9
CCC(Oc1cccc(NC(=O)c2ccc([N+](=O)[O-])cc2)c1)C(=O)c1ccccc1 (stereo not drawn) | 31
COC(=O)Cc1c(C)c2cc(Cl)c(OC(C)C(C)=O)cc2oc1=O (stereo not drawn) | -58
CCN(CC(=O)Nc1cccc(OC)c1)S(=O)(=O)c1ccc(C)cc1 | 2
Cc1c(NC(=O)CSc2n[nH]c(-c3ccccc3)n2)c(=O)n(-c2ccccc2)n1C | 8
Cc1cc(C)c2oc(-c3cccc(NC(=O)COc4ccccc4Cl)c3C)nc2c1 | 17
CC(Oc1ccc(Br)cc1)C(=O)NCCN1CCOCC1 (stereo not drawn) | 0
COC(=O)c1cc(-c2ccccc2)sc1NC(=O)c1cc(-c2cccnc2)nc2ccccc12 | -6
COC(=O)c1ccccc1NC(=O)c1cc(-c2ccccn2)nc2c(C)c(Cl)ccc12 | 0
COc1cc(NC(=O)C(C)Oc2ccc(Cl)cc2Cl)ccc1NC(=O)c1ccco1 (stereo not drawn) | -12
NS(=O)(=O)c1ccc(CCNC(=O)c2cc(-c3cccnc3)nc3ccc(Cl)cc23)cc1 | -21
Nc1nc(SCC(=O)c2ccc(Oc3ccccc3)cc2)n[nH]1 | -58
Cc1ccc(C(C)C)c(OCC(=O)Nc2cccc3ncccc23)c1 | 60
COc1ccc(C(=O)C(C)Oc2cccc(NC(=O)c3cccc([N+](=O)[O-])c3)c2)cc1 (stereo not drawn) | -3
O=C(COc1ccc([N+](=O)[O-])cc1)Nc1cc(C(F)(F)F)ccc1N1CCOCC1 | -2
COc1ccc(-c2cc(C(F)(F)F)nc(SCC(=O)Nc3ccc4c(c3)CCC4)n2)cc1OC | -9

# (more compounds)
canonical_smiles | MITF inh
COC(=O)c1ccc(C(=O)OC)c(NC(=O)COc2cc(C)c(C)cc2C)c1 | 16
Cc1cccc(C)c1NC(=O)C(C)N(c1ccc(Cl)cc1)S(C)(=O)=O (stereo not drawn) | -21
Cc1cc(C(=O)NCCCn2ccnc2)sc1-c1ccccc1 | 1
COc1cc(NC(=O)COc2ccccc2OC)cc(OC)c1 | -18
COc1ccc(OC(C)C(=O)NCC2CCCO2)cc1 (stereo not drawn) | -11
Cn1c(=O)c(C(=O)NCCO)c(O)c2ccccc21 | -54
Cc1cc(=O)[nH]c(SCC(=O)Nc2c(C)cccc2C)n1 | -9
CC(C)(C)c1ccc(OCCn2c(CO)nc3ccccc32)cc1 | 32
CN1C(=O)c2cccc(NC(=O)C3COc4ccccc4O3)c2C1=O (stereo not drawn) | 17
COC(=O)c1ccccc1NC(=O)CNC(=O)c1ccc(Cl)cc1Cl | -37
OC(Cn1nnc2ccccc21)Cn1c2ccc(Cl)cc2c2cc(Cl)ccc21 (stereo not drawn) | -7
COc1cccc(C(=O)OCc2nc3ccccc3s2)c1 | -11
Cc1cccc(OCCCC(=O)Nc2ccc3c(c2)OCCO3)c1C | -30
COc1cc([N+](=O)[O-])ccc1NC(=S)NCCn1cc(Br)cn1 | 5
COc1ccc(Cl)cc1N1CCN(CCCNC(=S)Nc2ccc(Cl)cc2C)CC1 | -10
O=C(O)CCC(=O)Nc1ccc(Sc2ccc([N+](=O)[O-])cc2)cc1 | 7
Cc1c(NC(=O)CSc2nnc(-c3cccc(Cl)c3)o2)c(=O)n(-c2ccccc2)n1C | 3
CCOC(=O)c1c(C)oc2ccc(N(C(=O)c3ccncc3)S(=O)(=O)c3ccc(F)cc3C)cc12 | 31
O=C(Nc1cccc([N+](=O)[O-])c1)Nc1nn(Cc2ccc(Cl)c(Cl)c2)cc1Cl | 6
Cc1ccc(C(=O)O)cc1NC(=O)COc1ccc(I)cc1 | 7
